NS1 inh: blocks influenza NS1 protein function. S. cerevisiae slowed by influenza A NS1, growth recovery by OD600. actives 0.4% (n = 270,000). Potency, µM (doses to about 46.1 µM), for the others: at the top dose activity, positive = more growth. AID 2326; also: actives are rising curves; nearly all actives have a fitted effect of over 50% in size
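Compounds were scored for reversing the slow growth caused by influenza A NS1 in S. cerevisiae, measured by optical density at 600 nm. Assay medium contained 2% galactose at pH 6.0; NS1-free yeast of the same strain were the positive control.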
Lassa entry inh: inhibitors of Lassa virus binding or cell entry. actives 1.2% (n = 300,000). AID 540256. Lassa virus pseudotype entry inhibition, cell reporter; control for the full effect not named in the record. Potency, µM (series often up to 37.9 µM), for the others: at the highest dose activity change, negative = inhibition, usual class: inhibitors; active means well fitted inhibition curve with a large enough effect; inconclusive means small, poorly fitted or top-dose-only effect, or effect the other way; inactive means flat fitted curve, though single readings scatter; tested in HEK293 cells; also: % is scaled to controls: 0 for no effect and ±100 for the full control effect; nearly all actives have a fitted effect of over 50% in size; luciferase read-out
RE007 growth inh: less growth of the S. pombe RE007 Vpr strain | S. pombe RE007 Vpr strain, BacTiter-Glo ATP luminescence, 24 h; control for the full effect not named in the record | Potency, µM (series often up to 92.2 µM), without a hit: top-dose activity change, negative = less growth | actives 0.21% (n = 360,000) | AID 651644; active = well fitted falling curve with a large enough effect; inconclusive = small, poorly fitted or top-dose-only effect; inactive = no such curve, though single readings can be large or run the other way;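 also: % is scaled to controls: 0 for no effect and ±100 for the full control effect; nearly all actives have a fitted effect of over 50% in size; the assay follows cell death caused by Vpr and the record does not say whether a fall means rescue or toxicity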
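Fission yeast strain RE007, carrying one chromosomally integrated HIV-1 vpr copy, was seeded at OD 0.01 in PMG+AL medium with 23 nL pinned compound. After 24 h at 30 °C and 99% humidity, viability was read by BacTiter-Glo luminescence.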
2A StopGo: FMDV 2A StopGo reporter, luciferase signal; human cells with a luciferase reporter of 2A StopGo recoding; control for the full effect not named in the record; actives 1.2% (n = 410,000); AID 1159524; Potency, µM (doses to about 57.9 µM), without a hit: top-dose signal change, negative = less light; active = well fitted falling curve with a large enough effect; inconclusive = small, poorly fitted or top-dose-only effect; inactive = no such curve, though single readings can be large or run the other way; tested in HEK293T cells; also: % is scaled to controls: 0 for no effect and ±100 for the full control effect; nearly all actives have a fitted effect of over 45% in size; luciferase light after 4 h
SARS PLpro yeast: blocks SARS-CoV papain-like protease in a yeast assay. S. cerevisiae expressing SARS-CoV PLpro, growth rescue; control for the full effect not named in the record. Potency, µM (top dose mostly 32.9 µM), without a hit: at the top dose activity, positive = growth rescue. actives 0.19% (n = 330,000); also: 0% is about no effect; nearly all actives have a fitted effect of over 55% in size; growth read by luminescence after 48 h
MARV entry inh: blocks Marburg virus binding to or entry into cells; Marburg virus pseudotyped entry inhibition, cell reporter; control for the full effect not named in the record; about a third of the inactives were read at about 46 µM; Potency, µM (highest dose often 37.8 µM), without a hit: top-dose activity change, negative = inhibition, hits mostly inhibitors; actives 1.8% (n = 300,000); AID 540276; active = well fitted inhibition curve with a large enough effect; inconclusive = small, poorly fitted or top-dose-only effect, or effect the other way; inactive = flat fitted curve, though single readings scatter; tested in HEK293 cells; about a fifth of its hits are not listed in these tables; also: % is scaled to controls: 0 for no effect and ±100 for the full control effect; luciferase read-out
Cruzain inh noDet: inhibitors of Trypanosoma cruzi cruzain without detergent; purified cruzain, Z-FR-AMC fluorescence, no detergent; Potency, µM, for inactives: max response, negative = inhibition, usual class: inhibitors; actives 2.3% (n = 200,000); AID 1476; active = well fitted curve in the direction sought with a large enough effect; inconclusive = small, poorly fitted or top-dose-only effect, or another doubt; inactive = no such curve, though single readings can be large; an effect the other way counts as inactive or inconclusive;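 also: plate controls were enzyme without inhibitor for no effect and buffer without enzyme for full effect; nearly all actives have a fitted effect of over 40% in size; top concentration of the series not given in the record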
Target sequence (P25779 123-467 limits assumed): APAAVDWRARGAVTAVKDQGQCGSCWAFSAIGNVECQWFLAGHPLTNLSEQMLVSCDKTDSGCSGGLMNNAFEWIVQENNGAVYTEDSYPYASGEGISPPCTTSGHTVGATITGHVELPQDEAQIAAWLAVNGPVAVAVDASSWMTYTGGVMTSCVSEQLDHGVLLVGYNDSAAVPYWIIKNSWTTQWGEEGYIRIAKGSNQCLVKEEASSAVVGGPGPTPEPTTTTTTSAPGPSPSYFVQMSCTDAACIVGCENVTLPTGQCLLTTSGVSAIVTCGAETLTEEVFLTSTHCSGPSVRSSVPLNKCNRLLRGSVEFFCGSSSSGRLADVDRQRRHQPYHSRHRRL
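Purified cruzain at 1.5 nM, pre-incubated 15 min with compound at room temperature in 100 mM sodium acetate pH 5.5, 5 mM DTT, 0.00005% Triton X-100. Reaction started with 2 uM Z-FR-AMC; AMC fluorescence increase over 60 s gives rate.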
Cruzain Triton: blocks cruzain activity in presence of Triton detergent. P25779. purified cruzain, Z-FR-AMC fluorescence, 0.01% Triton. Potency, µM, without a hit: max response, negative = inhibition, usual class: inhibitors. actives 0.43% (n = 200,000); active = well fitted curve in the direction sought with a large enough effect; inconclusive = small, poorly fitted or top-dose-only effect, or another doubt; inactive = no such curve, though single readings can be large; an effect the other way counts as inactive or inconclusive;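 also: plate controls were neutral wells for no effect and buffer without enzyme for full effect; nearly all actives have a fitted effect of over 40% in size; top concentration of the series not given in the record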
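Cruzain (1.5 nM) preincubated 15 min at RT with compound in 100 mM sodium acetate pH 5.5, 5 mM DTT, 0.01% Triton X-100. Reaction started with 2 uM Z-FR-AMC; AMC fluorescence (ex 360/em 450 nm) change over 60 s gave rate.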
* = called active by the depositor; u = inconclusive; x = not tested or not shown; [ ] = another dose, or the depositor's remark. Unless noted, calls follow the shape of the dose curve; as a rule, active means well fitted rising curve with a large enough effect; inconclusive means small, poorly fitted or top-dose-only effect; inactive means no such curve, though single readings can be large or run the other way. Potency is read from the fitted curve at half-maximal effect.

SMILES	NS1 inh	Lassa entry inh	RE007 growth inh	2A StopGo	SARS PLpro yeast	MARV entry inh	Cruzain inh noDet	Cruzain Triton
CCc1nnc(NC(=O)CN2C(=O)NC3(CCCC3)C2=O)s1	x	2%	3%	-11%	3%	u	x	x
CN(C)CCCN(C(=O)C1COc2ccccc2O1)c1nc2cc3c(cc2s1)OCO3 (stereo unspecified)	7%	x	-10%	-15%	1%	x	x	x
Cc1ccc(C2=NN(CCC(=O)NCCCN3CCOCC3)C(=O)CC2)cc1	-6%	x	2%	-17%	21%	x	x	x
COc1ccc(-c2[nH]c(-c3ccc(O)cc3)nc2-c2ccccc2)cc1	x	u	x	-12%	x	u	0%	-12%
O=C(N/N=C\c1ccc(F)cc1)c1ccc(Cn2cc(Br)c([N+](=O)[O-])n2)o1	-1%	4%	-9%	7%	-6%	u	16%	-9.4%
CC(=Nc1ccccc1)C1=C(O)C(Cc2ccc(O)cc2)NC1=O (stereo unspecified)	x	u	16%	-14%	x	-24%	x	x
O=C(c1ccc2c(c1)OCCO2)N(Cc1cccnc1)c1nc2ccc(F)cc2s1	x	27%[46.1 µM]	x	0%	x	x	-4%	2.8%
CN(CC(=O)Nc1sccc1C#N)S(=O)(=O)c1ccc(F)cc1	x	u	13%	-13%	-1%	1%[46.1 µM]	x	x
CNS(=O)(=O)c1cc(OC)ccc1OC	3%	20%	0%	61%[activator]	3%	1%	5%	-0.1%
CCOc1cc(/C=C2\N=C(SC)SC2=O)cc([N+](=O)[O-])c1OC(C)=O	u	-4%	5%	-24%	0%	4%	u	-15%
O=C(Cc1ccc(NC(=O)N2CCCCc3ccccc32)cc1)NCc1ccccc1Br	x	u	x	-13%	x	x	-25%	-2.9%
COc1ccc(/C=C2\SC(=O)NC2=S)cc1OC	-50%	7%	-21%	5%	-31%	u	-23%	-25%
CNC(=S)N1CCN(c2ccc([N+](=O)[O-])cc2)CC1	-1%	2%	-17%	-21%	-1%	11%	-11%	-12%
Cc1ccc2nc(-c3ccc(NC(=O)COc4c(C)ccc(C)c4C)cc3)sc2c1	x	2%[46.1 µM]	x	43%[activator]	x	24%[46.1 µM]	u	-1.3%
Cc1cc(Nc2nnnn2-c2ccccc2)n(-c2ccccc2)n1	27%	-1%	14%	25%	4%	-6%	-6%	1.1%
COc1cc(=O)[nH]c(=O)n1C(=O)Cc1ccccc1	6%	1%	-12%	1%	4%	12%	-5%	-9.2%
CC(C)(C)NS(=O)(=O)c1ccc(CCC(=O)NCc2ccco2)cc1	1%	18%	17%	29%	2%	-2%	29%	1.3%
Cc1ccnc(NC(=O)Nc2cccc(F)c2)n1	-5%	u	5%	47%[activator]	-2%	u	x	x
Cc1nc2ccc(F)cc2cc1C(=O)NCC1CCCO1 (stereo unspecified)	15%	-1%	25%	-13%	3%	17%	-3%	4.0%
O=C(NCCc1ccccc1)c1ccccc1[N+](=O)[O-]	-6%	x	11%	0%	0%	x	x	x
COC(=O)c1ccc(CNC(=O)COC(=O)Cc2ccsc2)cc1	0%	u	8%	-10%	-2%	22%[46.1 µM]	x	x
COC(=O)Nc1ccc2c(c1)N(C(=O)CCN(C)C)c1ccccc1CC2	-1%	x	4%	-16%	-7%	x	x	x
CCC(CC)N1CCN(Cc2nc3ccc([N+](=O)[O-])cc3c(=O)n2-c2ccccc2F)CC1	-1%	11%	-9%	-12%	2%	15%[46.1 µM]	x	x
CCC(=O)N(CC)C1=C(O)c2ccccc2C(=O)C1=O	-146%	-12%	u	-24%	-32%	2%	3%	-3.1%
COc1ccc(/C=C/C(=O)NC(=S)N2CCSCC2)cc1	x	u	-3%	28%	1%	u	x	x
Additional entries:
SMILES	NS1 inh	Lassa entry inh	RE007 growth inh	2A StopGo	SARS PLpro yeast	MARV entry inh	Cruzain inh noDet	Cruzain Triton
O=C(CCC(=O)c1ccc(F)cc1)Nc1cc(Cl)cc(Cl)c1	-21%	-18%	-11%	-7%	0%	2%	0%	-2.0%
Cc1ccc(NC(=O)COC(=O)CCC(=O)c2cccs2)c(C)c1	x	6%[46.1 µM]	29%	-6%	3%	11%[46.1 µM]	x	x
O=C(c1ccc(S(=O)(=O)N2CCCC2)cc1)N1CCCCCC1	3%	x	16%	0%	1%	x	x	x
COc1ccc(OC)c(NC(=O)Nc2ccc3c(c2)CCC3)c1	-12%	x	-3%	10%	-12%	x	x	x
Cc1ccccc1OCC(=O)OCC(=O)Nc1cc(C(F)(F)F)ccc1N1CCOCC1	-39%	18%	2%	u	1%	3%	11%	-12%
O=C(Nc1cccnc1)C1CCN(S(=O)(=O)c2cccc3nonc23)CC1	-3%	4%	12%	x	-3%	-3%	-10%	-5.8%
N#C/C(=C(/O)COC(=O)CSc1ccc2ccccc2c1)c1nc2ccccc2[nH]1	19%	4%	-5%	-23%	u	u	u	-3.4%
Cc1ccc(CSCC(=O)Nc2c(C)n(C)n(-c3ccccc3)c2=O)cc1	5%	-3%	5%	-17%	-5%	-11%	-1%	-1.8%
COc1ccc(OC)c(-c2nnc(SCC(=O)N3CCCC3)o2)c1	12%	-6%	16%	2%	1%	3%[46.1 µM]	x	x
c1cncc(CNc2ncnc3sc4c(c23)CCC4)c1	x	-26%[46.1 µM]	4%	-19%	4%	u	x	x
CCOC(=O)N1CCC(NC(=O)c2cc3c(-c4cccc(OC)c4)nn(C)c3s2)CC1	3%	-27%	-3%	u	-6%	-17%[46.1 µM]	u	3.9%
N#C/C(=C(/O)c1ccc(C(=O)c2ccccc2)cc1)c1nc2ccccc2[nH]1	-3%	3%	1%	0%	-1%	-5%	x	x
Cc1cc(=O)oc(C)c1C(=O)NCc1ccccc1	-17%	-18%	3%	5%	-4%	-4%[46.1 µM]	-6%	6.9%
O=C(CN1C(=O)C2C3C=CC(C3)C2C1=O)OCC(=O)c1ccccc1 (stereo unspecified)	21%	6%	-9%	22%	6%	u	9%	0.3%
Cc1ccc(-c2onc(C)c2C)cc1S(=O)(=O)NCc1cccs1	x	-7%[46.1 µM]	x	31%[activator]	x	x	1%	-6.9%
NC(=O)c1c(NC(=O)CN2C(=O)NC(Cc3ccccc3)C2=O)sc2c1CCC2 (stereo unspecified)	-2%	x	1%	-6%	0%	x	x	x
COc1ccccc1NC(=O)c1sc2ncn(Cc3ccc(C)cc3)c(=O)c2c1C	13%	3%	-25%	x	-4%	0%	-9%	6.5%
Nc1ncc(CN2CCCC(C(=O)Nc3ccc(-c4ccco4)cc3)C2)cn1 (stereo unspecified)	15%	x	0%	-4%	-5%	x	x	x
Cc1ccc(NC(=O)CSc2ccc(C(N)=O)cc2[N+](=O)[O-])cc1	-12%	9%	0%	28%	27%	-17%	-26%	5.0%
Cc1ccc2c(c1)sc(C)[n+]2CCCS(=O)(=O)[O-]	x	28%[46.1 µM]	9%	-12%	11%	-18%[46.1 µM]	x	x
CCCn1c(SCC(=O)N2c3ccc(F)cc3CCC2C)nnc1-c1ccccn1 (stereo unspecified)	-12%	5%	5%	-15%	6%	-6%[46.1 µM]	u	-2.8%
O=C(Nc1ccc2c(c1)OC1(CCCC1)O2)C1CC1	-89%	0%	6%	x	-19%	5%	1%	0.0%
O=C(NC1CCCC1)c1cc(-c2ccccc2)nc2ccccc12	-14%	1%	-10%	-14%	-4%	-4%	x	x
CSc1ccccc1NC(=O)c1cc(C2CC2)on1	-12%	x	-22%	35%[activator]	-15%	x	-3%	-3.4%
CC1CN(C(=O)CCc2cc(C(C)(C)C)c(O)c(C(C)(C)C)c2)CC(C)O1 (stereo unspecified)	3%	-1%[46.1 µM]	7%	9%	5%	-11%[46.1 µM]	x	x
Following part
SMILES	NS1 inh	Lassa entry inh	RE007 growth inh	2A StopGo	SARS PLpro yeast	MARV entry inh	Cruzain inh noDet	Cruzain Triton
O=C(Nc1ccnn1C1CCN(C2CCCCC2)CC1)c1ccccc1	3%	x	6%	-27%	2%	x	x	x
CCC1=Nc2ccccc2-c2nnc(SC)nc2O1	-5%	14%	1%	0%	0%	-27%	6%	1.9%
Cc1ccc(NC(=O)C(C)Sc2nnc(-c3cccnc3)n2-c2ccccc2)cc1 (stereo unspecified)	-5%	0%	-30%	-20%	-9%	0%	26%	5.7%
N/C(Cc1cccc2ccccc12)=N\OC(=O)Cc1cccs1	34%	6%	-14%	52%[activator]	-59%	2%	10%	-1.6%
O=C(O)c1ccccc1NS(=O)(=O)c1ccc(NN=Cc2ccc(F)cc2)c([N+](=O)[O-])c1	x	-3%[46.1 µM]	-2%	-22%	1%	5%[46.1 µM]	x	x
O=C(NC1CCCCC1)C(c1ccc(F)cc1)N(Cc1ccco1)C(=O)CN1C(=O)c2ccccc2S1(=O)=O (stereo unspecified)	11%	u	1%	-17%	-6%	4%	-13%	-3.3%
Nc1c(C(=O)NCCc2ccccc2)nnn1Cc1ccccc1	4%	u	-4%	8%	23%	u	-8%	-1.2%
CC(=O)C(Sc1nccc(-c2cccs2)n1)C(C)=O	x	0%	u	32%[activator]	0%	23%[46.1 µM]	x	x
CC(=O)c1ccc(C(=O)NC2CC(C)(C)Cc3c2cnn3-c2ccccc2)cc1 (stereo unspecified)	15%	12%	2%	-19%	2%	25%	x	x
Cc1ccc2[nH]c(=O)c(CN(Cc3cccnc3)C(=S)NCCCN(C)C)cc2c1	3%	25%	-8%	-6%	-1%	-6%[46.1 µM]	x	x
CCOc1ccc(-c2nnc3n2N=C(c2ccc(OC)cc2)CS3)cc1	8%	u	13%	18%	-12%	-41%	2%	2.9%
COC(=O)c1cn(C(=O)c2ccc(Cl)cc2)c2ccccc12	-8%	16%[46.1 µM]	-13%	-5%	0%	-11%[46.1 µM]	x	x
COc1ccc(CNC(=O)C(c2ccc(C)o2)N(Cc2cccs2)C(=O)Cc2cccs2)cc1 (stereo unspecified)	7%[9.22 µM]	11µM*	-9%	19%	0%	u	-9%	-6.6%
COc1ccc2cc3cc(C(=O)NC(C)C)oc3nc2c1	-15%	u	-10%	-5%	-17%	u	5%	u
CC1(C(=O)NNC(=O)C2CCCCC2)CC1(Cl)Cl (stereo unspecified)	3%	-11%	14%	2%	-1%	12%[46.1 µM]	x	x
Cc1ccc(CN2CCN(/N=C/c3cc(Br)ccc3O)CC2)cc1	-11%	-28%[14.3 µM]	-8%	-12%	7%	14%	-7%	-3.6%
